NS1 function inh = qHTS Assay for Inhibitors of Influenza NS1 Protein Function; S. cerevisiae slowed by influenza A NS1, growth recovery by OD600; Potency, µM (highest dose often 46.1 µM), without a hit: at the top dose activity, positive = more growth; 270,000 compounds, 0.4% hits; AID 2326, 2010; active means well fitted rising curve with a large enough effect; inconclusive means small, poorly fitted or top-dose-only effect; inactive means no such curve, though single readings can be large or run the other way; further: nearly all actives have a fitted effect of over 50% in size
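Growth recovery, yeast-based: influenza A NS1 expressed in S. cerevisiae causes slow growth, and suppressors are detected by OD600. The parent strain without NS1 is used as positive control.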
RE007 growth inh = qHTS Assay for Inhibitors of the HIV-1 protein Vpr. S. pombe RE007 Vpr strain, BacTiter-Glo ATP luminescence, 24 h; control for the full effect not named in the record. Potency, µM (titrated, usually from 92.2 µM), inactives show top-dose activity change, negative = less growth. 360,000 compounds, 0.21% hits; active = well fitted falling curve with a large enough effect; inconclusive = small, poorly fitted or top-dose-only effect; inactive = no such curve, though single readings can be large or run the other way;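 further: on the % scale 0 is the no-effect control and ±100 the full control effect; nearly all actives have a fitted effect of over 50% in size; the assay follows cell death caused by Vpr and the record does not say whether a fall means rescue or toxicity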
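Fission yeast strain RE007, carrying one chromosomally integrated HIV-1 vpr copy, was seeded at OD 0.01 in PMG+AL medium with 23 nL pinned compound. After 24 h at 30 °C and 99% humidity, viability was read by BacTiter-Glo luminescence.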
LASV entry inh = qHTS for Inhibitors of binding or entry into cells for Lassa Virus. Lassa virus pseudotype entry inhibition, cell reporter; control for the full effect not named in the record. Potency, µM (series often up to 37.9 µM), for the others: at the highest dose activity change, negative = inhibition, hits mostly inhibitors. 300,000 compounds, 1.2% hits. AID 540256, 2011; active means well fitted inhibition curve with a large enough effect; inconclusive means small, poorly fitted or top-dose-only effect, or effect the other way; inactive means flat fitted curve, though single readings scatter; tested in HEK293 cells; further: on the % scale 0 is the no-effect control and ±100 the full control effect; nearly all actives have a fitted effect of over 50% in size; luciferase read-out
SARS PLP yeast = qHTS of Yeast-based Assay for SARS-CoV PLP | S. cerevisiae expressing SARS-CoV PLpro, growth rescue; control for the full effect not named in the record | 330,000 compounds, 0.19% hits | AID 485353, 2010 | Potency, µM (series often up to 32.9 µM), for inactives: at the top dose activity, positive = growth rescue; active means well fitted rising curve with a large enough effect; inconclusive means small, poorly fitted or top-dose-only effect; inactive means no such curve, though single readings can be large or run the other way; further: 0% is about no effect; nearly all actives have a fitted effect of over 55% in size; growth read by luminescence after 48 h
2A StopGo = High Throughput Screening for Foot and Mouth Disease Virus Antivirals. human cells with a luciferase reporter of 2A StopGo recoding; control for the full effect not named in the record. Potency, µM (highest dose often 57.9 µM), without a hit: at the top dose signal change, negative = less light. 410,000 compounds, 1.2% hits; active = well fitted falling curve with a large enough effect; inconclusive = small, poorly fitted or top-dose-only effect; inactive = no such curve, though single readings can be large or run the other way; tested in HEK293T cells; further: on the % scale 0 is the no-effect control and ±100 the full control effect; nearly all actives have a fitted effect of over 45% in size; luciferase light after 4 h
Cruzain noTriton = qHTS Assay for Promiscuous and Specific Inhibitors of Cruzain (without detergent); Cruzipain (Trypanosoma cruzi), P25779; purified cruzain, Z-FR-AMC fluorescence, no detergent; Potency, µM, inactives show max response, negative = inhibition, actives largely listed as inhibitors; 200,000 compounds, 2.3% hits; AID 1476, 2009;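 further: plate controls were enzyme without inhibitor for no effect and buffer without enzyme for full effect; nearly all actives have a fitted effect of over 40% in size; top concentration of the series not given in the record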
Target sequence (P25779 123-467 limits assumed): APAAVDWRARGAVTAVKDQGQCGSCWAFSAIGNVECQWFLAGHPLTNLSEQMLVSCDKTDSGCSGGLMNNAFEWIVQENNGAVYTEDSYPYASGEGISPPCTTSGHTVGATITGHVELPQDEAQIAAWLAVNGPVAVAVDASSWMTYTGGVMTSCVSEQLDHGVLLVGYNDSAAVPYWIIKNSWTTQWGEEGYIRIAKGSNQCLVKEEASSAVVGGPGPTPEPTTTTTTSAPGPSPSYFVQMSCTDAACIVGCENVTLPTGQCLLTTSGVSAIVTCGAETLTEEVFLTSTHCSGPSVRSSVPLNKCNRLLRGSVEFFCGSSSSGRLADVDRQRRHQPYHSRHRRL
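Detergent-free condition (0.00005% Triton X-100) in acetate buffer pH 5.5 with DTT. 1.5 nM enzyme and compound were pre-mixed 15 min, then 2 uM Z-FR-AMC substrate added; reaction progress from fluorescence change between first and third reads (60 s).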
MARV entry inh = qHTS for inhibitors of binding or entry into cells for Marburg Virus | Marburg virus pseudotyped entry inhibition, cell reporter; control for the full effect not named in the record; about a third of the inactives were read at about 46 µM | Potency, µM (top dose mostly 37.8 µM), without a hit: at the top dose activity change, negative = inhibition, hits mostly inhibitors | 300,000 compounds, 1.8% hits | AID 540276, 2011; active = well fitted inhibition curve with a large enough effect; inconclusive = small, poorly fitted or top-dose-only effect, or effect the other way; inactive = flat fitted curve, though single readings scatter; tested in HEK293 cells; about a fifth of its hits are not listed in these tables; further: on the % scale 0 is the no-effect control and ±100 the full control effect; luciferase read-out
Cruzain inh Det = qHTS Assay for Promiscuous and Specific Inhibitors of Cruzain (with detergent) | Cruzipain (Trypanosoma cruzi), P25779 | purified cruzain, Z-FR-AMC fluorescence, 0.01% Triton | 200,000 compounds, 0.43% hits | Potency, µM, inactives show max response, negative = inhibition, actives largely listed as inhibitors;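 further: plate controls were neutral wells for no effect and buffer without enzyme for full effect; nearly all actives have a fitted effect of over 40% in size; top concentration of the series not given in the record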
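Cysteine protease activity tested under reducing, mildly acidic conditions (100 mM sodium acetate pH 5.5, 5 mM DTT) plus 0.01% Triton X-100. Cruzain 1.5 nM; substrate Z-FR-AMC 2 uM; 15 min compound preincubation at room temperature.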
* marks the source's active call; other numbers are inactive results; ? = inconclusive; · = not tested or not shown; & = joins results of further samples; [ ] = remark or other dose. Unless noted, the call rests on the fitted dose curve; in most records, active means well fitted curve in the direction sought with a large enough effect; inconclusive means small, poorly fitted or top-dose-only effect, or another doubt; inactive means no such curve, though single readings can be large; an effect the other way counts as inactive or inconclusive. Potency means the concentration at half of the fitted maximal effect.

SMILES	NS1 function inh	RE007 growth inh	LASV entry inh	SARS PLP yeast	2A StopGo	Cruzain noTriton	MARV entry inh	Cruzain inh Det
CCOC(=O)c1cc(-c2ccc(C)cc2)n(CCC(=O)NC(C)CC)c1C (stereo not given)	-3%	19%	-5%	-3%	-11%	?	?	-3.0%
CCCCNC(=O)c1nn(-c2ccc(CC)cc2)nc1CO	·	·	7%[46.1 µM]	·	16%	1%	?	0.4%
COc1ccc(CCNC(=O)CSc2nc(C)nc3sccc23)cc1OC	0%	6%	-1%[46.1 µM]	0%	-18%	·	?	·
CCC(=O)N1CCc2cc(S(=O)(=O)N(C)c3ccc(Br)cc3)ccc21	3%	22%	-7%[46.1 µM]	-1%	7%	·	8%[46.1 µM]	·
C=CCn1c(COc2cccc3cccnc23)nnc1SCC(=O)OC	1%	4%	?	4%	-4%	-1%	0%	2.6%
N#Cc1c(NCc2ccccc2)ccnc1NCc1cccnc1	0%	1%	-23%	2%	-15%	-2%	?	-3.8%
O=C(Cn1c(CC(=O)N2CCOCC2)nc2ccccc21)Nc1ccc2c(c1)OC(F)(F)O2	10%	-2%	-15%	3%	-16%	?	-15%	3.4%
O=[N+]([O-])c1ccc(Cl)c(/C=N/N2CCN(Cc3ccccc3)CC2)c1	-8%	-10%[3.69 µM]	15%	-2%	-2%	-10%	1%	-0.7%
CCN1CCN(S(=O)(=O)c2ccc(Cl)c(C(=O)NCc3ccco3)c2)CC1	·	7%	2%	1%	-19%	·	0%	·
COc1ccc(CCNS(=O)(=O)c2cnc(Cl)c(Br)c2)cc1OC	1%	19%	·	0%	-8%	·	·	·
O=C(O)c1ccc(/C=C2\SC(=S)N(NC(=O)c3ccccc3[N+](=O)[O-])C2=O)cc1	5%	-9%	·	1%	4%	·	·	·
CCCCOC(=O)c1ccc(NC(=O)C(=O)NCc2ccco2)cc1	·	1%	20%	2%	2%	·	19%[46.1 µM]	·
CN(/C=C1/C(=O)CNC1=O)CCO	·	17%	2%	-1%	-6%	·	-4%[46.1 µM]	·
CCCP(=O)(CC(=O)O)c1ccccc1 (stereo not given)	8%	-9%	6%	?	18%	-6%	?	4.3%
Cc1ccc2cc(C#N)c(SCC(=O)N3CCCc4ccccc43)nc2c1C	16%	7%	4%	4%	-18%	-20%	14%	5.2%
S=C(NC1CCCCC1)N1CCCCC1	0%	-1%	5%	1%	-4%	·	0%[46.1 µM]	·
Cc1ccc(NC(=O)N(Cc2ccco2)Cc2cc3cc(C)cc(C)c3nc2Cl)cc1	?	·	·	-13%	·	?	0%	-1.6%
CC#CCN(Cc1ccco1)C(=O)C1CCC(=O)N(Cc2ccccc2F)C1 (stereo not given)	-4%	3%	?	-6%	20%	·	13%	·
CCOC(=O)C1=C(O)/C(=C/c2cc(OC)c(OC)c(OC)c2)SC1=Nc1ccc(OC)cc1	-24%	-3%	-22%	3%	-25%	-16%	?	5.1%
CCCCSc1nnc2c(n1)OC(C)N(C(C)=O)c1ccccc1-2 (stereo not given)	·	·	5%[46.1 µM]	·	-1%	-5%	24%[46.1 µM]	-5.7%
NC1=NC(=Nc2cccc(S(=O)(=O)N3CCOCC3)c2)c2ccccc21	8%	3%	0%	-1%	-26%	·	?	·
COc1ccc(C2c3c(C)nn(-c4ccccc4)c3NC(=O)N2c2ccccc2)cc1 (stereo not given)	11%	-9%	?	-8%	-8%	4%	?	-5.9%
CCOC(=O)c1ccc(COC(=O)c2ccc(-c3nnc(-c4ccccc4)o3)cc2)o1	4%	-22%	?	·	-20%	·	?	·
CC(C)C(=O)Nc1c2c(nc3ccccc13)N(C)CC2	13%	2%	-4%	7%	13%	5%	13%	-8.2%
O=C(Nc1cnn(Cc2ccc(F)cc2)c1)c1cc2nc(-c3ccco3)cc(C(F)(F)F)n2n1	-2%	1%	-1%	4%	-1%	?	0%&0%	3.9%

Filtered by structure: the entries above containing a halogen (eight)
SMILES	NS1 function inh	RE007 growth inh	LASV entry inh	SARS PLP yeast	2A StopGo	Cruzain noTriton	MARV entry inh	Cruzain inh Det
CCC(=O)N1CCc2cc(S(=O)(=O)N(C)c3ccc(Br)cc3)ccc21	3%	22%	-7%[46.1 µM]	-1%	7%	·	8%[46.1 µM]	·
O=C(Cn1c(CC(=O)N2CCOCC2)nc2ccccc21)Nc1ccc2c(c1)OC(F)(F)O2	10%	-2%	-15%	3%	-16%	?	-15%	3.4%
O=[N+]([O-])c1ccc(Cl)c(/C=N/N2CCN(Cc3ccccc3)CC2)c1	-8%	-10%[3.69 µM]	15%	-2%	-2%	-10%	1%	-0.7%
CCN1CCN(S(=O)(=O)c2ccc(Cl)c(C(=O)NCc3ccco3)c2)CC1	·	7%	2%	1%	-19%	·	0%	·
COc1ccc(CCNS(=O)(=O)c2cnc(Cl)c(Br)c2)cc1OC	1%	19%	·	0%	-8%	·	·	·
Cc1ccc(NC(=O)N(Cc2ccco2)Cc2cc3cc(C)cc(C)c3nc2Cl)cc1	?	·	·	-13%	·	?	0%	-1.6%
CC#CCN(Cc1ccco1)C(=O)C1CCC(=O)N(Cc2ccccc2F)C1 (stereo not given)	-4%	3%	?	-6%	20%	·	13%	·
O=C(Nc1cnn(Cc2ccc(F)cc2)c1)c1cc2nc(-c3ccco3)cc(C(F)(F)F)n2n1	-2%	1%	-1%	4%	-1%	?	0%&0%	3.9%

4 entries drawn at random from the list so far, as already listed:
SMILES	NS1 function inh	RE007 growth inh	LASV entry inh	SARS PLP yeast	2A StopGo	Cruzain noTriton	MARV entry inh	Cruzain inh Det
C=CCn1c(COc2cccc3cccnc23)nnc1SCC(=O)OC	1%	4%	?	4%	-4%	-1%	0%	2.6%
Cc1ccc2cc(C#N)c(SCC(=O)N3CCCc4ccccc43)nc2c1C	16%	7%	4%	4%	-18%	-20%	14%	5.2%
CCCP(=O)(CC(=O)O)c1ccccc1 (stereo not given)	8%	-9%	6%	?	18%	-6%	?	4.3%
O=C(Nc1cnn(Cc2ccc(F)cc2)c1)c1cc2nc(-c3ccco3)cc(C(F)(F)F)n2n1	-2%	1%	-1%	4%	-1%	?	0%&0%	3.9%

Remaining list, next part.
SMILES	NS1 function inh	RE007 growth inh	LASV entry inh	SARS PLP yeast	2A StopGo	Cruzain noTriton	MARV entry inh	Cruzain inh Det
COc1ccc(C(CCNCc2ccc(OC)c(OC)c2)c2ccc(F)cc2)cc1 (stereo not given)	-3%	-10%	1%	0%	-16%	·	7%[46.1 µM]	·
Cc1ccc(-c2nnc(N3CCN(C(=O)CN4CCOCC4)CC3)c3ccccc23)cc1	-12%	-6%	-11%	5%	-2%	-1%	-10%&-10%	0.6%
Cc1ccc(S(=O)(=O)N2CCN(C(=O)CN3CCOCC3)C2)cc1	-3%	13%	11%	?	-21%	7%	3%	-0.8%
CC(NC(=O)COc1ccc(-c2ccccc2)cc1)C1CCCO1 (stereo not given)	-14%	-17%	·	-2%	?	·	·	·
Cc1ccccc1S(=O)(=O)Cc1ccc(C(=O)N2CCN(c3ncccn3)CC2)o1	-9%	-10%	-2%	4%	-26%	8%	3%	1.9%
Cc1ccc(NC(=O)c2sc(-n3nc(C)c(Cc4ccc(Cl)cc4)c3C)nc2C)cc1	·	·	2%[46.1 µM]	·	-1%	-8%	-5%[46.1 µM]	0.7%

Compound activity (PubChem)
